# D2 PAM: positive allosteric modulators of human D2 dopamine receptor. DiscoveRx D2 beta-arrestin cells, luminescence, 90 min; 100% = 57 uM dopamine signal. hit rate 0.23% among 360,000. potentiation, % (test concentration not listed). P14416; active = potentiation of 50% or more; inconclusive = 30% to 50%; inactive = 30% or less;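 note: compound concentration not given in the record; tested on top of an EC20 dose of dopamine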
# Target sequence (P14416 whole entry, looked up): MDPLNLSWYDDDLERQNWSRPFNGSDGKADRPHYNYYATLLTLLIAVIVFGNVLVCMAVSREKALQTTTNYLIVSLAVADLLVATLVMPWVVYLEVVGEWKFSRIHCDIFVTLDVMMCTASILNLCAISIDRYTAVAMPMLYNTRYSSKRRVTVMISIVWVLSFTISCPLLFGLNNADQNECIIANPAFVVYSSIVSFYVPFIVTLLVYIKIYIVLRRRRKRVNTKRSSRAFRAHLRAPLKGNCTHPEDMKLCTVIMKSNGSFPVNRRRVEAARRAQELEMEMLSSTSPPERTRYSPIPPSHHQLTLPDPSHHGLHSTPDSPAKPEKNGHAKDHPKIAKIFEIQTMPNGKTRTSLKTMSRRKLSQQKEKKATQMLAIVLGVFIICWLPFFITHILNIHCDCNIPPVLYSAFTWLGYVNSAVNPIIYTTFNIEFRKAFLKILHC
#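 D2 cells co-treated with compound plus 50 nM dopamine (EC20) for 90 min at 37 deg C to detect potentiation. Beta-arrestin recruitment was read as enzyme-fragment luminescence after 1 h at ambient temperature. Full response was set by 57 uM dopamine.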
# Six1-Eya2 blk: inhibitors of human Six1/Eya2 interaction. activity change, % (no concentration beside the values). AlphaScreen GST-Six1/His-Eya2 binding, biochemical; stronger effect = lower value; control for the full effect not named in the record. hit rate 0.56% among 360,000; in the data active = activity change below about -65%; inconclusive = about -30% to -65%; inactive = above about -30%; note: % is set by controls: 0 for no effect and ±100 for the full control effect; compound concentration not given in the record
#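 Homogeneous AlphaScreen proximity assay pairing GST-Six1 with His-tagged Eya2 (added as 5X mix: 250 nM and 500 nM) in 50 mM Tris pH 8.0, 300 mM NaCl, 1 mM TCEP. Glutathione donor and nickel acceptor beads; 1 h, 37 °C, dark.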
# PINK1 expr mod: PINK1 expression modulation; PINK1 immunofluorescence, high-content cytometry, 24 h; AID 624263; Potency, µM (titrated, usually from 76.6 µM), for inactives: at the highest dose activation (PINK1 increase), actives largely listed as activators; hit rate 0.2% among 410,000; active = well fitted activation curve with a large enough effect; inconclusive = small, poorly fitted or top-dose-only effect; inactive = flat fitted curve, though single readings scatter; cell line not stated here;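 note: potency is the fitted concentration of half-maximal effect; % of control where 0% means no effect; nearly all actives have a fitted effect of over 65% in size; a mitochondrial uncoupler was the plate control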
#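 Measures PINK1 amount and localization on or inside mitochondria by immunofluorescence. Stable cells get compounds at 5 concentrations for 24 hours before fixation and staining; CCCP controls included.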
# TRPML1 agonist: human mucolipin-1 channel agonism; Q9GZU1; activation, % (no concentration beside the values); hit rate 0.12% among 410,000; TRPML1-expressing cells, Ca2+ dye fluorescence, FDSS; host cell line not named in the record; reference of the full effect not given here; AID 624414; in the data active = activation above about 50%; inconclusive = about 30% to 50%; inactive = below about 30%; note: 0% is about no effect; the text of the record puts the active cut at 80%
# Target sequence (Q9GZU1 whole entry, looked up): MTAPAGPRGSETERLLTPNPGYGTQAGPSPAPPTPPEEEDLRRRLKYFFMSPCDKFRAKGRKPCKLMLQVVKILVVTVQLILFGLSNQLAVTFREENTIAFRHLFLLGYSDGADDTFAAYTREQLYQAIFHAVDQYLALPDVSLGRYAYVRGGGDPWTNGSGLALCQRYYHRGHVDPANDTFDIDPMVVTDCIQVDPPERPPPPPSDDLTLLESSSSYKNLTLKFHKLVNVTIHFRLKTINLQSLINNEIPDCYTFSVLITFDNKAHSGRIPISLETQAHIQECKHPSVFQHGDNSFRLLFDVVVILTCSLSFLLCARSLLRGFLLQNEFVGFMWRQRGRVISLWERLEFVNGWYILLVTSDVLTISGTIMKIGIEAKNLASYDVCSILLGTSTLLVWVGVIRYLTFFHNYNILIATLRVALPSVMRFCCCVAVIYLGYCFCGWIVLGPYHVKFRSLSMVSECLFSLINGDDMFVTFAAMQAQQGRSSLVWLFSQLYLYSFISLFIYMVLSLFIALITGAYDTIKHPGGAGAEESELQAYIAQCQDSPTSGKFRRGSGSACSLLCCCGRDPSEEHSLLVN
#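 Cells: TRPML1-DL, 1X Tet inducer, ~16 h at 37 degrees C/5% CO2. Dye: ABD Ca8 no-wash + quencher, 45-90 min RT. Read: 10 s baseline, compound add, 110 s agonist phase; 54-4 EC80 (4uM final), 110 s antagonist phase.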
# TRPML1 blocker: blocks the human TRPML1 channel; hit rate 0.02% among 390,000; activity change, negative = inhibition, % (test concentration not listed); AID 624415; TRPML1-inducible cells, Ca2+ dye fluorescence, FDSS; stronger effect = lower value; inhibition of EC80 agonist-evoked calcium signal; in the data active means activity change below about -50%; inconclusive means about -30% to -50%; inactive means above about -30%;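 note: stimulus is agonist 54-4 at its EC80 concentration; % is set by controls: 0 for no effect and ±100 for the full control effect; compound concentration not given in the record; the text of the record puts the active cut at -80%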
#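 Calcium fluorescence in TRPML1-DL cells induced overnight with Tet: a 110 s read after compound pin addition, then a 110 s antagonist read after challenge with 54-4 at 4 uM final (EC80).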
# D2 ag: human D2 receptor agonism in beta-arrestin assay | DiscoveRx PathHunter D2 beta-arrestin, luminescence, 90 min; 100% = 57 uM dopamine signal | activation, % (concentration not given with the values) | hit rate 0.084% among 360,000; in the data active = activation above about 40%; inconclusive = about 15% to 40%; inactive = below about 15%; note: compound concentration not given in the record; the text of the record calls up to 30% inactive
#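 DiscoveRx PathHunter D2 beta-arrestin cells (2,100/well) attached overnight, then compound-stimulated 90 min at 37 C in HBSS/10 mM HEPES/0.1% Tween-20 buffer; beta-galactosidase complementation read by luminescence after 1 h at ambient temperature. Dopamine 57 uM final (EC100) as control.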
# * hit, by the source's call; ? = inconclusive; nt = no result given; [ ] = another dose, or the depositor's remark.
# Start of the listing, in advance:
SMILES,D2 PAM,Six1-Eya2 blk,PINK1 expr mod,TRPML1 agonist,TRPML1 blocker,D2 ag
O=C(CN1CCOCC1)Nc1c2c(nc3ccccc13)N(Cc1ccccc1)CC2,-40,-18,3.2%,-0.4,-5,-3.2
Cc1cccn2c(=O)c3cc(C(=O)NCCN4CCOCC4)c(=N)n(Cc4ccc(F)cc4)c3nc12,-10,-11,-0.7%,-1.1,16,-6.1

# The whole of this part, from the first entry:
SMILES,D2 PAM,Six1-Eya2 blk,PINK1 expr mod,TRPML1 agonist,TRPML1 blocker,D2 ag
O=C(CN1CCOCC1)Nc1c2c(nc3ccccc13)N(Cc1ccccc1)CC2,-40,-18,3.2%,-0.4,-5,-3.2
Cc1cccn2c(=O)c3cc(C(=O)NCCN4CCOCC4)c(=N)n(Cc4ccc(F)cc4)c3nc12,-10,-11,-0.7%,-1.1,16,-6.1
O=C(NCc1ccccc1Cl)C1CCC(CNS(=O)(=O)c2ccc(Br)s2)CC1 (configuration not stated),nt,nt,8.2%,2.3,10,nt
COc1cccc(C(=O)NCCS(=O)(=O)NCCCc2ccccc2)c1,0,2,-0.5%,-0.8,-3,1.2
O=C(COc1coc(CN2CCN(c3ccccc3)CC2)cc1=O)NC1CCCC1,-1,-3,-0.2%,2.0,50,4.3
O=C(NCc1cccnc1)c1ccccc1NS(=O)(=O)c1ccc(F)cc1F,1,12,2.0%,0.0,-11,0.0
CC(C)CNC(=O)C1(C)CCCN1C(=O)c1cc2ccccc2s1 (configuration not stated),-5,28,-0.3%,-1.5,nt,-5.1
O=C(CNC(=O)c1sc2ccccc2c1Cl)NCc1ccccc1,-19,0,9.4%,-0.1,13,-1.9
N#C/C(=C\c1ccccc1)C(=O)Nc1ccccn1,-5,8,1.0%,0.4,10,-1.3
O=c1[nH]ncc2c3ccccc3n(Cc3ccccc3F)c12,-17,1,4.6%,0.3,-5,-3.2
CCO[C@H]1OC(C(=O)NCc2ccccc2)=C[C@@H](c2ccc3c(c2)OCO3)[C@@H]1CCCO,-2,5,0.5%,4.5,7,-1.9
CC(C)OC(=O)CSc1nc2cc3c(cc2cc1C#N)OCO3,12,5,6.1%,1.7,11,-2.1
CCCCOC(=O)CSC1=C(C#N)C(c2ccccc2OC)C(C#N)C(=O)N1 (configuration not stated),-21,-1,-0.6%,1.3,1,-4.8
COc1ccc(CCn2c(N)c(C#N)c3nc4ccccc4nc32)cc1OC,1,-65*,0.6%,1.0,-17,-3.9
Cc1ccc(C(=O)/C=C/Nc2ccccn2)cc1,-19,8,3.4%,2.3,5,1.3
CC(OC(=O)C1=Cc2ccccc2OC1)C(=O)NC(C)(C)C (configuration not stated),-4,-3,8.1%,1.2,2,-5.8
Cc1[nH]nc(Nc2ccc(Br)cc2)c1[N+](=O)[O-],-12,-8,?,0.4,-8,-4.0
O=C(Nc1nnc([C@H]2C[C@H](O)[C@@H](CO)O2)s1)c1cccc(OC(F)(F)F)c1,-5,-5,2.7%,-0.4,nt,-4.5
CCC(=O)NC(=S)Nc1ccc(S(=O)(=O)NC(C)=O)cc1,-27,6,0.0%,0.1,26,-3.6
CCCOc1ccc(N2CC(C(=O)Nc3ccc4c(c3)OCO4)CC2=O)cc1 (configuration not stated),-2,-6,7.7%,0.4,4,-0.4
N#CCSc1nc2ccc(N3CCOCC3)cc2c(=O)n1CCc1ccccc1,-26,2,2.7%,1.2,65,-3.2
O=C(C1=C(O)C(=O)N(c2nccs2)C1c1ccccc1)c1cc2ccccc2o1 (configuration not stated),-8,-5,-1.4%,92*,-2,-4.4
CC1CCCCC1NC(=O)c1ccc(CSc2nc3ccncc3[nH]2)cc1 (configuration not stated),-2,-1,0.4%,-0.8,-8,-1.7
Cc1ccccc1-c1cccc([C@@H]2C[C@H]3[C@H](CON3C)CN2Cc2cc(Cl)cc(Cl)c2)c1,5,-1,-0.5%,2.1,56,-0.9
CCCCN(C(=O)CCC(=O)Nc1cc(C)on1)C(C(=O)NC(C)(C)C)c1ccccc1Cl (configuration not stated),-4,-5,1.9%,1.8,20,0.5
COCCNC(=O)C1(C)CCCN(C(=O)c2ccco2)C1 (configuration not stated),-11,4,3.1%,-0.1,9,-3.9
Cc1ccc(NC(=O)CSc2n[nH]c(C)c2[N+](=O)[O-])cc1,-26,0,3.2%,-0.1,-1,-2.9
COc1ccc(NC(=O)CSc2nc3c(c(=O)n2-c2ccccc2)SCC3)c(OC)c1,1,29,0.3%,0.0,63,-2.1
O=C(N/N=C/c1ccccc1C(=O)O)c1cccc(S(=O)(=O)Nc2cc(Cl)ccc2Cl)c1,-5,-14,3.4%,0.6,70,-2.0
CSc1ccccc1-c1nnc(-c2ccc(Cl)cc2Cl)o1,-5,10,6.3%,1.0,17,-5.6
Cc1ccc(/C(O)=C2/C(=O)C(=O)OC2c2ccc(Cl)cc2)cc1 (configuration not stated),-10,-1,-6.0%[38.3 µM],0.6,-4,-0.9
O=c1cc(CN2CCN(c3ccc(Cl)c(Cl)c3)CC2)c2c(ccc3ccccc32)o1,-4,-6,1.2%,0.0,nt,-2.2
O=C(O)c1ccc(NC(=O)c2cc(S(=O)(=O)N3CCCCC3)c(Cl)cc2Cl)cc1,nt,nt,-0.6%,1.2,-9,nt
COc1cc(/C=N\Nc2ccc([N+](=O)[O-])cc2)ccc1OCC(=O)Nc1ccc(C)c(C)c1,-5,-5,12%,0.5,16,0.0
CN(c1ccccc1)S(=O)(=O)c1cccc(C(=O)NCc2ccccc2)c1,5,2,0.7%,-1.7,8,1.6
O=C(Nc1ccc(OC(=O)c2cccs2)cc1)c1ccco1,-3,-3,-0.8%,0.0,2,-1.5
CC(C)(O)C#Cc1cccc(-c2nc(C(=O)NCCCN3CCOCC3)cc3c2[C@H](CCO)N(S(=O)C(C)(C)C)C3)c1 (some centres not stated),-5,-2,0.7%,-0.3,nt,-4.1
COc1ccc(CNC(=O)COC(=O)C2=COCCO2)cc1,-3,0,-1.1%,-0.8,5,-4.6
Cc1cccc(NC(=O)Cn2c(=O)oc3ccccc32)n1,10,6,0.1%,-0.1,-11,0.3
O=C(c1ccc(S(=O)(=O)N2CCCCC2)cc1)N1CCN=C1SCc1cccnc1,-10,-5,0.8%,-0.8,9,-5.5
O=C(Nc1cccc(-n2cnnn2)c1)C1CCCN(Cc2cccc(C(F)(F)F)c2)C1 (configuration not stated),-36,2,0.1%,0.1,-4,-3.8
COCCCn1c(=N)c(C(=O)NC2CCCC2)cc2c(=O)n3ccccc3nc21,nt,nt,1.7%,-0.9,-7,nt
CCCn1c(COc2ccc(C(=O)O)cc2)nc2ccccc21,2,11,13%,0.1,-11,-4.8
Cc1noc(C)c1-c1ccc(C(=O)NCc2ccncc2)c2occc12,-11,-21,4.1%,-0.3,nt,3.1
CCOC(=O)C1CCN(CCC(=O)Nc2ccc(C)cc2)CC1,-27,3,-0.1%,-0.4,?,3.6
C=CCOc1cccc(C2/C(=C(/O)c3ccccc3)C(=O)C(=O)N2CCN2CCOCC2)c1 (configuration not stated),-6,4,-1.0%,-0.4,1,-2.5
COc1ccc(CNC(=O)c2ccc3c(=O)n4c(nc3c2)CCCCC4)cc1OC,-14,1,1.7%,-0.3,11,-1.2
CNc1nnc(SCC(=O)c2cc(C)n(C3CC3)c2C)s1,-1,-19,1.2%,-1.0,5,-1.5
Cc1c(NC(=O)C(C)c2ccc(CC(C)C)cc2)c(=O)n(-c2ccccc2)n1C (configuration not stated),10,23,-0.3%,1.5,-28,0.2
O=C(NCc1ccncc1)Nc1cccc(Cl)c1,-11,-7,-1.0%,2.2,20,-4.2
Cc1ccccc1-n1c(-c2ccc3ccccc3n2)n[nH]c1=S,-12,-4,-1.6%,-0.4,48,-2.9
NC(=O)CCCc1nc(-c2ccccc2Cl)no1,3,3,3.9%[38.3 µM],0.6,-8,2.9
O=[N+]([O-])c1ncn(C23CC4CC(CC(C4)C2)C3)n1,3,8,-0.5%,-0.9,2,-0.9
COc1ccc(NC(=O)C(Cc2ccccc2)NS(=O)(=O)c2ccc3c(c2)CCN3C(C)=O)cc1 (configuration not stated),nt,nt,1.0%,-0.1,-1,nt
O=C(Nc1ccccc1)N(Cc1ccc2c(c1)OCO2)Cc1nc2ccccc2c(=O)[nH]1,-8,-14,0.8%,-0.1,0,-4.5
Cc1cccc(NC2=NCC(=O)N2Cc2cccs2)c1,-4,-2,0.6%,1.1,-2,-1.2
Cc1cc(C)c2c(N)c(S(=O)(=O)c3ccccc3)sc2n1,4,4,2.2%,-0.3,-5,-5.4
CNS(=O)(=O)c1ccc(NC(=S)Nc2ccc3c(c2)OCO3)cc1,-6,-2,-0.1%,-0.4,9,-0.2
CCOC(=O)N1CCC(NC(=O)CS(=O)(=O)Cc2nc(-c3ccc(C)cc3)oc2C)CC1,-2,2,-1.3%,0.2,-8,0.4
C[C@H](NC(=O)CCCOc1ccc(Cl)cc1Cl)c1nnc2ccccn12,0,4,0.3%,-0.8,-9,1.7

# Full records as entered above. Order of screens: D2 PAM, Six1-Eya2 blk, PINK1 expr mod, TRPML1 agonist, TRPML1 blocker, D2 ag
# NC(=O)CCCc1nc(-c2ccccc2Cl)no1 as listed: 3, 3, 3.9%[38.3 µM], 0.6, -8, 2.9
# Cc1cccc(NC2=NCC(=O)N2Cc2cccs2)c1 as listed: -4, -2, 0.6%, 1.1, -2, -1.2
# O=C(NCc1ccncc1)Nc1cccc(Cl)c1 as listed: -11, -7, -1.0%, 2.2, 20, -4.2

# The list continues.
SMILES,D2 PAM,Six1-Eya2 blk,PINK1 expr mod,TRPML1 agonist,TRPML1 blocker,D2 ag
COc1ccc(CNC(=O)CSc2nnc3nc(C)cc(C)n23)cc1OC,-7,-2,0.9%,0.1,-9,-0.7
O=C(NCCCn1ccnc1)c1ccc(Br)s1,-26,1,-0.8%,0.1,14,-1.9
CCOC(=O)c1c(NC(=O)CSc2cn(CCNC(=O)c3c(F)cccc3F)c3ccccc23)sc2c1CCCC2,nt,nt,0.5%,0.7,-6,nt
C[C@H](CO)N1C[C@H](C)[C@@H](CN(C)C(=O)c2ccc(F)cc2)Oc2cc(Br)ccc2S1(=O)=O,3,18,2.8%,0.1,-7,-5.2
CN(CCc1ccccc1)C(=O)c1cccc(NC(=O)Cc2cccc(NC(=O)C3CCCN(C(=O)C4CCC4)C3)c2)c1 (configuration not stated),nt,-15,-0.1%,-0.5,-3,-0.6
CCN(CC)S(=O)(=O)c1cc(C(=O)OC)ccc1Cl,-8,5,2.5%,-1.2,-2,-5.0
O=C(NCCc1csc(-c2cccnc2)n1)c1ccc(Br)o1,-2,-26,0.4%,0.0,62,1.0
Cc1ccc(C(=O)NN2C(=O)C3C4c5ccccc5C(c5ccccc54)C3C2=O)cc1 (configuration not stated),-4,1,8.5%,1.5,-12,0.6
N#CCCN(C(=O)COc1ccc(Cl)cc1Cl)c1ccccc1,-24,4,1.3%,-0.1,6,-5.6
CCc1nc2n[nH]c(N)c2c2c1CCCC2,7,10,0.0%,-0.4,5,-1.0
Cc1ccc(-c2nc(CCNC(=O)c3ccc(C)c(C)c3)cs2)cc1,nt,nt,0.4%,5.9,21,nt
